Screening results: PubChem BioAssay, several laboratories
HSV replic up: increases HSV replication in cells | HSV replication augmentation in cells, fold increase | maximum fold increase | 0.005% of 220,000 active | AID 1956;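 active = peak rise of 1.5-fold or more in the series; tested in PC3 cells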;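 also: first round at 10 µM; read as green reporter fluorescence; hits show the peak of a series up to 25 µM; 1 = signal of infected wells without compound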
RGS16-Gao: RGS16-Galphao interaction regulator (human); AID 1441; bead-based flow cytometry RGS16-Galphao binding, fluorescence; actives lie on both sides; binding response (% of control), % at 10 µM; 0.38% of 220,000 active; O15492+P09471;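 active = below 25% or above 175%, edge rows of some plates excepted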;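 also: Galphao activated by GDP with aluminum fluoride before binding; 100% = wells without compound and 0% = beads without RGS; some results beyond the cut were filed as inactive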
Target sequence (O15492 whole entry, looked up): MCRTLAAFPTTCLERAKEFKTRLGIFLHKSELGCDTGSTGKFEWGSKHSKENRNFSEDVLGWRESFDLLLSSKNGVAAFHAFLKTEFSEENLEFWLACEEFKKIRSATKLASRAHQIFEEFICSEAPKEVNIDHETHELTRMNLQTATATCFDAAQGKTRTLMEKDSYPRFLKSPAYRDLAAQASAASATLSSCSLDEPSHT
Target sequence (P09471 whole entry, looked up): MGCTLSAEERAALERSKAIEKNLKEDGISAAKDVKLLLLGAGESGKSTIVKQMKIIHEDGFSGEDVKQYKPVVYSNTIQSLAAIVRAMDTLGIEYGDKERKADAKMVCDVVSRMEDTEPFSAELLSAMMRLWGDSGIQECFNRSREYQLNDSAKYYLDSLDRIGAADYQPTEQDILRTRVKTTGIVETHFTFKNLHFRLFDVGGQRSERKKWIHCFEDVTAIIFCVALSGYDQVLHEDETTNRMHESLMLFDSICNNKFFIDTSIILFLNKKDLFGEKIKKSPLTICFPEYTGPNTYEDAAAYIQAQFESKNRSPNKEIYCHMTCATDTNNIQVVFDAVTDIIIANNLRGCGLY
HSV replic up primary fold: also measured in HSV replic up; calls as there; fold increase; compound at 10 µM; measured here: primary screen fold increase 10 uM; tested in PC3 cells;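 GFP signal in the first replicate; 1 = infected wells without compound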
Active calls of the source: *; i = inactive; nt = not tested or not shown.

canonical_smiles: CCN(CC)c1ccc(/C=C2\C(=O)NC(=S)N(C)C2=O)o1
  HSV replic up: nt | HSV replic up primary fold: nt | RGS16-Gao: 100

canonical_smiles: NC1=NC(=O)C(c2ccccc2)O1 (centres undefined)
  HSV replic up: nt | HSV replic up primary fold: nt | RGS16-Gao: 99

canonical_smiles: O=C(c1ccc2nc(-c3ccco3)c(-c3ccco3)nc2c1)N1CCC2(CC1)OCCO2
  HSV replic up: nt | HSV replic up primary fold: nt | RGS16-Gao: 91

canonical_smiles: COC(=O)C1=C(c2cc3ccccc3s2)C[C@@H]2CC[C@H]1N2C(=O)N1CCCCC1
  HSV replic up: i | HSV replic up primary fold: 0.61 | RGS16-Gao: nt

canonical_smiles: C[N+](C)(C)CC#CCOC(=O)Nc1cccc(Cl)c1
  HSV replic up: i | HSV replic up primary fold: 0.95 | RGS16-Gao: nt

canonical_smiles: CCN(CCCl)Cc1ccccc1Br
  HSV replic up: i | HSV replic up primary fold: 0.66 | RGS16-Gao: nt

canonical_smiles: COc1cc(CC(C)N)c(OC)cc1I (centres undefined)
  HSV replic up: i | HSV replic up primary fold: 0.93 | RGS16-Gao: nt

canonical_smiles: COC(=O)C1=C(c2ccccc2)C[C@@H]2CC[C@H]1N2C(=O)NCc1ccccc1
  HSV replic up: i | HSV replic up primary fold: 0.86 | RGS16-Gao: nt

canonical_smiles: COC(=O)C1=C(c2cc3ccccc3o2)C[C@@H]2CC[C@H]1N2C(=O)N1CCC(C)CC1
  HSV replic up: i | HSV replic up primary fold: 0.76 | RGS16-Gao: nt

canonical_smiles: CC[C@H]1CC2CN3CCc4c([nH]c5cc(OC)ccc45)[C@](C(=O)OC)(C2)[C@H]13
  HSV replic up: i | HSV replic up primary fold: 0.87 | RGS16-Gao: nt

canonical_smiles: COC(=O)C1=C(c2cc3ccccc3s2)C[C@@H]2CC[C@H]1N2C(=O)NC(C)C
  HSV replic up: i | HSV replic up primary fold: 0.89 | RGS16-Gao: nt

canonical_smiles: O=C1N[C@H](Cc2ccccc2)C(=O)N2[C@@H]3[C@H](C[C@@H]12)c1ccccc1N3OOSc1ccccc1
  HSV replic up: i | HSV replic up primary fold: 0.72 | RGS16-Gao: nt

canonical_smiles: Cc1ccc(S(=O)(=O)N[C@@H](CCCCN)C(=O)CCl)cc1
  HSV replic up: i | HSV replic up primary fold: 1.1 | RGS16-Gao: nt

canonical_smiles: C[C@@]12N[C@@H](Cc3ccccc31)c1ccccc12
  HSV replic up: i | HSV replic up primary fold: 0.93 | RGS16-Gao: nt

canonical_smiles: COC(=O)C1=C(c2cccc(OC)c2OC)C[C@@H]2CC[C@H]1N2C(=O)NCc1ccc(C(F)(F)F)cc1
  HSV replic up: i | HSV replic up primary fold: 0.73 | RGS16-Gao: nt

canonical_smiles: C[C@]12CC[C@H](O)CC1=CC[C@@H]1[C@@H]2CC[C@@]2(C)[C@H]1CC[C@]2(C)O
  HSV replic up: i | HSV replic up primary fold: 1.1 | RGS16-Gao: nt

canonical_smiles: O=C(Nc1ccccc1)c1c(O)[nH]c(=S)[nH]c1=O
  HSV replic up: i | HSV replic up primary fold: 1.1 | RGS16-Gao: nt

canonical_smiles: CCCN1CCC[C@@H]2Cc3nc(N)ncc3C[C@H]21
  HSV replic up: i | HSV replic up primary fold: 0.84 | RGS16-Gao: nt

canonical_smiles: COC(=O)C1=C(c2cc3ccccc3s2)C[C@@H]2CC[C@H]1N2C(=O)NCCCOC(C)C
  HSV replic up: i | HSV replic up primary fold: 0.76 | RGS16-Gao: nt

canonical_smiles: COC(=O)C1=C(c2cccc(OC)c2OC)C[C@@H]2CC[C@H]1N2C(=O)N1CCC(O)CC1
  HSV replic up: i | HSV replic up primary fold: 0.72 | RGS16-Gao: nt

canonical_smiles: Oc1ccc(C2=CCNCC2)cc1O
  HSV replic up: i | HSV replic up primary fold: 0.92 | RGS16-Gao: nt

canonical_smiles: O=C(O)Cc1cnc[nH]1
  HSV replic up: i | HSV replic up primary fold: 0.9 | RGS16-Gao: nt

canonical_smiles: CCCN1CCc2cccc3c2[C@H]1Cc1ccc(O)c(O)c1-3
  HSV replic up: i | HSV replic up primary fold: 0.89 | RGS16-Gao: nt

canonical_smiles: C=CCN1CC[C@]23c4c5ccc(O)c4O[C@H]2/C(=N/NC(=O)c2ccccc2)CC[C@@]3(O)[C@H]1C5
  HSV replic up: i | HSV replic up primary fold: 0.83 | RGS16-Gao: nt

canonical_smiles: COC(=O)C1=C(c2ccc(S(C)(=O)=O)cc2)C[C@@H]2CC[C@H]1N2C(=O)NCc1ccc(F)cc1
  HSV replic up: i | HSV replic up primary fold: 0.8 | RGS16-Gao: nt

canonical_smiles: COC(=O)C1=C(c2ccc(S(C)(=O)=O)cc2)C[C@@H]2CC[C@H]1N2C(=O)N1CCC(C)CC1
  HSV replic up: i | HSV replic up primary fold: 0.93 | RGS16-Gao: nt

canonical_smiles: CCCNC(=O)N1[C@H]2CC[C@@H]1C(C(=O)OC)=C(c1ccc(S(C)(=O)=O)cc1)C2
  HSV replic up: i | HSV replic up primary fold: 0.72 | RGS16-Gao: nt

canonical_smiles: COC(=O)C1=C(c2ccccc2)C[C@@H]2CC[C@H]1N2C(=O)NCCS(C)=O (some centres undefined)
  HSV replic up: i | HSV replic up primary fold: 0.68 | RGS16-Gao: nt

canonical_smiles: C[N+](C)(C)CC#CCN1CCCC1=O
  HSV replic up: i | HSV replic up primary fold: 0.76 | RGS16-Gao: nt

canonical_smiles: c1ccc(CCCN2CCN(CCOC(c3ccccc3)c3ccccc3)CC2)cc1
  HSV replic up: i | HSV replic up primary fold: 0.77 | RGS16-Gao: nt

canonical_smiles: COC(=O)C1=C(c2cc3ccccc3o2)C[C@@H]2CC[C@H]1N2C(=O)NCc1cccc2ccccc12
  HSV replic up: i | HSV replic up primary fold: 0.83 | RGS16-Gao: nt

canonical_smiles: OC[C@@H](O)CCl
  HSV replic up: i | HSV replic up primary fold: 0.85 | RGS16-Gao: nt

canonical_smiles: CC(=O)O[C@@H]1/C=C/[C@](C)(O)C[C@@H](C)C/C=C/[C@H]2[C@@H]3O[C@]3(C)[C@@H](C)[C@H]3[C@H](Cc4ccccc4)NC(=O)[C@@]312
  HSV replic up: i | HSV replic up primary fold: 0.51 | RGS16-Gao: nt

canonical_smiles: COC(=O)C1=C(c2ccccc2)C[C@@H]2CC[C@H]1N2C(=O)NC1CC1
  HSV replic up: i | HSV replic up primary fold: 0.82 | RGS16-Gao: nt

canonical_smiles: CN1CC2=CC(O)CC3Oc4c(O)ccc(c4[C@]23C)C1 (some centres undefined)
  HSV replic up: i | HSV replic up primary fold: 1.1 | RGS16-Gao: nt

canonical_smiles: COC(=O)C1=C(c2cccc(OC)c2OC)C[C@@H]2CC[C@H]1N2C(=O)NC(C)C
  HSV replic up: i | HSV replic up primary fold: 1 | RGS16-Gao: nt

canonical_smiles: COC(=O)C1=C(c2cc3ccccc3s2)C[C@@H]2CC[C@H]1N2C(=O)NCc1ccc(F)cc1
  HSV replic up: i | HSV replic up primary fold: 0.92 | RGS16-Gao: nt

canonical_smiles: CC(C)(O)[C@@H]1[C@H]2OC(=O)[C@@H]1[C@]1(O)C[C@H]3O[C@]34C(=O)O[C@H]2[C@]14C (tested in a mixture with another compound)
  HSV replic up: i | HSV replic up primary fold: 0.83 | RGS16-Gao: nt

canonical_smiles: CNCCc1c[nH]c2ccc(O)cc12
  HSV replic up: i | HSV replic up primary fold: 0.8 | RGS16-Gao: nt

canonical_smiles: CC[C@H](C)/C=C(C)/C=C/C1=CC2=C(Cl)C(=O)[C@@](C)(OC(C)=O)C(=O)C2=CO1
  HSV replic up: i | HSV replic up primary fold: 0.89 | RGS16-Gao: nt

canonical_smiles: C[C@@H]([C@@H](O)c1ccccc1)N(C)C(=O)Cc1ccccc1
  HSV replic up: i | HSV replic up primary fold: 0.92 | RGS16-Gao: nt

canonical_smiles: COC(=O)C1=C(c2cc3ccccc3s2)C[C@@H]2CC[C@H]1N2C(=O)NCc1ccccc1
  HSV replic up: i | HSV replic up primary fold: 0.93 | RGS16-Gao: nt

canonical_smiles: Fc1ccc(C(OCCN2CCN(CCCc3ccccc3)CC2)c2ccc(F)cc2)cc1
  HSV replic up: i | HSV replic up primary fold: 0.65 | RGS16-Gao: nt

canonical_smiles: COC(=O)C1=C(c2cc3ccccc3s2)C[C@@H]2CC[C@H]1N2C(=O)NC1CC1
  HSV replic up: i | HSV replic up primary fold: 0.93 | RGS16-Gao: nt

canonical_smiles: O=C1N[C@@H](Cc2ccccc2)C(=O)N2[C@H]1C[C@H]1c3ccccc3N(OOSc3ccccc3)[C@H]12
  HSV replic up: i | HSV replic up primary fold: 0.8 | RGS16-Gao: nt

canonical_smiles: COC(=O)C1=C(c2cc3ccccc3s2)C[C@@H]2CC[C@H]1N2C(=O)NCc1ccco1
  HSV replic up: i | HSV replic up primary fold: 0.7 | RGS16-Gao: nt

canonical_smiles: Cc1c(C(=O)c2cccc3ccccc23)c2cccc3c2n1[C@H](CN1CCOCC1)CO3
  HSV replic up: i | HSV replic up primary fold: 0.78 | RGS16-Gao: nt

canonical_smiles: CCOC(=O)CCCCCNC(=O)c1c(O)[nH]c(=O)[nH]c1=O
  HSV replic up: i | HSV replic up primary fold: 0.96 | RGS16-Gao: nt

canonical_smiles: CC(=O)N(C)CC#CCN1CCC(O)CC1
  HSV replic up: i | HSV replic up primary fold: 0.81 | RGS16-Gao: nt

canonical_smiles: CC(=O)O[C@@H]1/C=C/[C@](C)(O)C[C@@H](C)C/C=C/[C@H]2[C@H](O)C(C)=C(C)[C@H]3[C@H](Cc4ccccc4)NC(=O)[C@@]123
  HSV replic up: i | HSV replic up primary fold: 0.61 | RGS16-Gao: nt

Of the compounds above, 10 contain a halogen:
canonical_smiles: C[N+](C)(C)CC#CCOC(=O)Nc1cccc(Cl)c1
  HSV replic up: i | HSV replic up primary fold: 0.95 | RGS16-Gao: nt

canonical_smiles: CCN(CCCl)Cc1ccccc1Br
  HSV replic up: i | HSV replic up primary fold: 0.66 | RGS16-Gao: nt

canonical_smiles: COc1cc(CC(C)N)c(OC)cc1I (centres undefined)
  HSV replic up: i | HSV replic up primary fold: 0.93 | RGS16-Gao: nt

canonical_smiles: Cc1ccc(S(=O)(=O)N[C@@H](CCCCN)C(=O)CCl)cc1
  HSV replic up: i | HSV replic up primary fold: 1.1 | RGS16-Gao: nt

canonical_smiles: COC(=O)C1=C(c2cccc(OC)c2OC)C[C@@H]2CC[C@H]1N2C(=O)NCc1ccc(C(F)(F)F)cc1
  HSV replic up: i | HSV replic up primary fold: 0.73 | RGS16-Gao: nt

canonical_smiles: COC(=O)C1=C(c2ccc(S(C)(=O)=O)cc2)C[C@@H]2CC[C@H]1N2C(=O)NCc1ccc(F)cc1
  HSV replic up: i | HSV replic up primary fold: 0.8 | RGS16-Gao: nt

canonical_smiles: OC[C@@H](O)CCl
  HSV replic up: i | HSV replic up primary fold: 0.85 | RGS16-Gao: nt

canonical_smiles: COC(=O)C1=C(c2cc3ccccc3s2)C[C@@H]2CC[C@H]1N2C(=O)NCc1ccc(F)cc1
  HSV replic up: i | HSV replic up primary fold: 0.92 | RGS16-Gao: nt

canonical_smiles: CC[C@H](C)/C=C(C)/C=C/C1=CC2=C(Cl)C(=O)[C@@](C)(OC(C)=O)C(=O)C2=CO1
  HSV replic up: i | HSV replic up primary fold: 0.89 | RGS16-Gao: nt

canonical_smiles: Fc1ccc(C(OCCN2CCN(CCCc3ccccc3)CC2)c2ccc(F)cc2)cc1
  HSV replic up: i | HSV replic up primary fold: 0.65 | RGS16-Gao: nt

Only part of the results is shown; rates above refer to the full screens.
